High-throughput results from PubChem BioAssay.
TRPV1 potentiator: potentiators of human vanilloid receptor 1 (TRPV1); AID 540277; actives 0.02% (n = 320,000); potentiation, % at 8.33 µM; TRPV1-expressing cells, Fluo-8 calcium influx, capsaicin EC20 potentiation; host cell line not named in the record; control for the full effect not named in the record; Q8NER1; active means potentiation above 80%; inconclusive means 30% to 80%; inactive means below 30%; further: 0% is about no effect
Target sequence (Q8NER1 whole entry, looked up): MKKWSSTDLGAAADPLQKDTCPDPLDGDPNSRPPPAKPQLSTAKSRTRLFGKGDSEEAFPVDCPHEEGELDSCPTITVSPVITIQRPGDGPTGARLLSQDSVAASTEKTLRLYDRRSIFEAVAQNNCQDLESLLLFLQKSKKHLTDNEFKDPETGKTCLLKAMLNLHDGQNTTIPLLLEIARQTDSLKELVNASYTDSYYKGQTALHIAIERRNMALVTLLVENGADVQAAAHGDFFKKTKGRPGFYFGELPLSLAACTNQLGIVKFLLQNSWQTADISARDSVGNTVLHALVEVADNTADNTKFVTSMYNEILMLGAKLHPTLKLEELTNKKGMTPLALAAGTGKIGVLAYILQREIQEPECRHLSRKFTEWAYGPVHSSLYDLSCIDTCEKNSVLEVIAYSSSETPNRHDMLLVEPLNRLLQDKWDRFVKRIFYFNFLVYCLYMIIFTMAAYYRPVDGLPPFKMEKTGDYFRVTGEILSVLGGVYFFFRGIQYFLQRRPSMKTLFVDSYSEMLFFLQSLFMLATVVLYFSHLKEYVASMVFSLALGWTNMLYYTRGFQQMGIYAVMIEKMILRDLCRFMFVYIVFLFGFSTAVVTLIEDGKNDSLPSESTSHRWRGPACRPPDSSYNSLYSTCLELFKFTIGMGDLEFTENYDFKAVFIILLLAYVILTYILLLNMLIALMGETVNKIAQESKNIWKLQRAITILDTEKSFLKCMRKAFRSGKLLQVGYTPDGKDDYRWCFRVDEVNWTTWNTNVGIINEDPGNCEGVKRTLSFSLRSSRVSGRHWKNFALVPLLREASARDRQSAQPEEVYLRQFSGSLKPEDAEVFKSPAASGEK
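TRPV1-expressing cells were cultured overnight at 35.5C and loaded with Fluo-8 calcium dye for 40 to 90 min at room temperature. After a 10 s baseline, compound was added and calcium influx was read kinetically for 3 min (ex 480/em 520 nm).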
Sfp PPTase inh: inhibitors of Bacillus subtilis Sfp phosphopantetheinyl transferase | Q9F4F7 | Biochemical Sfp PPTase activity, qHTS | Potency, µM, for the others: max response, negative = inhibition, actives largely listed as inhibitors | actives 3.5% (n = 310,000); active means well fitted inhibition curve with a large enough effect; inconclusive means small, poorly fitted or top-dose-only effect, or another doubt; inactive means no such curve, though single readings can be large or run the other way;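 further: the enzyme is Sfp with the accession as filed and its product quenches rhodamine fluorescence; potency means the concentration at half of the fitted maximal effect; 0% = enzyme reaction without inhibitor and -100% = no enzyme wells; top concentration of the series not given in the record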
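Step 1, compound plus 15 nM Sfp-PPTase, 15 min, room temperature. Step 2, add rhodamine-CoA (5 uM) and BHQ-2-YbbR (12.5 uM). Step 3, read 525/598 nm fluorescence at 0 and 30 min.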
D2 ag: human D2 receptor agonism in beta-arrestin assay; P14416; DiscoveRx PathHunter D2 beta-arrestin, luminescence, 90 min; 100% = 57 uM dopamine signal; activation, % (test concentration not listed); actives 0.084% (n = 360,000); AID 624465; in the data active = activation above about 40%; inconclusive = about 15% to 40%; inactive = below about 15%; further: compound concentration not given in the record; the text of the record calls up to 30% inactive
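Agonist mode: compounds alone added to overnight-plated D2 PathHunter cells for 90 min at 37 C, with 57 uM final dopamine (EC100) defining full response. Beta-arrestin recruitment detected by chemiluminescent reagent, read after 1 h at ambient temperature.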
CtBP-E1A inh: CtBP/E1A binding inhibition | activity change, % (no concentration beside the values) | actives 0.49% (n = 340,000) | AlphaScreen GST-E1A/His-CtBP binding, 1536-well; hits give low values; control for the full effect not named in the record; in the data active means activity change below about -65%; inconclusive means about -30% to -65%; inactive means above about -30%; further: on the % scale 0 is the no-effect control and ±100 the full control effect; compound concentration not given in the record
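Protein mix (5X: 125 nM each GST-E1A, His-CtBP) was incubated with pinned compound 2 h at 37 deg C in dark, in 50 mM Tris pH 8.0 buffer with 300 mM NaCl. Glutathione donor and nickel acceptor beads followed; AlphaScreen signal read after 1 h.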
PINK1 expr mod: changes PINK1 expression | PINK1 immunofluorescence, high-content cytometry, 24 h | Potency, µM (titrated, usually from 76.6 µM), without a hit: at the highest dose activation (PINK1 increase), hits mostly activators | actives 0.2% (n = 410,000) | AID 624263; active = well fitted activation curve with a large enough effect; inconclusive = small, poorly fitted or top-dose-only effect; inactive = flat fitted curve, though single readings scatter; cell line not stated here;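 further: potency means the concentration at half of the fitted maximal effect; % of control where 0% means no effect; nearly all actives have a fitted effect of over 65% in size; a mitochondrial uncoupler was the plate control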
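PINK1 protein, normally rapidly degraded, was detected by immunofluorescence after 24 hour compound treatment of a stable cell line. Titration data (5 concentrations) came from laser-scanning cytometry, with CCCP-treated wells as controls.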
D2 potentiator: human D2 receptor positive allosteric modulation; P14416; potentiation, % (no concentration beside the values); actives 0.23% (n = 360,000); DiscoveRx D2 beta-arrestin cells, luminescence, 90 min; 100% = 57 uM dopamine signal; AID 624464; active = potentiation of 50% or more; inconclusive = 30% to 50%; inactive = 30% or less;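 further: compound concentration not given in the record; tested on top of an EC20 dose of dopamine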
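PathHunter beta-arrestin assay in DiscoveRx D2 cells. Compounds were added with an EC20 of dopamine (50 nM final) for 90 min at 37 deg C. Luminescence was read 1 h after detection reagent, with 57 uM dopamine as the EC100 control.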
Six1-Eya2 inh: blocks human Six1 binding to Eya2. AID 651725. Q15475+O00167. AlphaScreen GST-Six1/His-Eya2 binding, biochemical; hits give low values; control for the full effect not named in the record. actives 0.56% (n = 360,000). activity change, % (no concentration beside the values); in the data active = activity change below about -65%; inconclusive = about -30% to -65%; inactive = above about -30%; further: on the % scale 0 is the no-effect control and ±100 the full control effect; compound concentration not given in the record
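AlphaScreen luminescence read after one hour at 37 °C in darkness. Pin-transferred compounds met GST-Six1 and His-Eya2 protein (5X stock 250 nM/500 nM) plus glutathione donor and Ni-chelate acceptor beads (5X, 50 ug/mL).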
Starred values were filed as active, the others as inactive; ? = inconclusive; . = no result given; [ ] = another dose, or the depositor's remark.

SMILES | TRPV1 potentiator | Sfp PPTase inh | D2 ag | CtBP-E1A inh | PINK1 expr mod | D2 potentiator | Six1-Eya2 inh
C[C@@H]1CN([C@H](C)CO)C(=O)CCCn2nncc2CO[C@@H]1CN(C)S(=O)(=O)c1cccc(C#N)c1 | . | . | 2.6 | ? | -0.4% | 3 | 7
COc1cc(NC(=O)c2ccnnc2)cc(C(=O)Nc2cccc(C(F)(F)F)c2)c1 | 23 | -5% | -1.0 | -1 | 0.9% | -7 | -3
COc1ccc(N(CC(=O)NN=C2CCCC2)S(=O)(=O)c2ccccc2)cc1 | 8 | -1% | -1.4 | 5 | ? | -7 | 4
COc1ccc(NS(=O)(=O)c2cccs2)cn1 | ? | 5% | -7.2 | -11 | 4.2% | 3 | 0
CCOc1cc(/C=N/NC(=O)c2ccccn2)ccc1OC(=O)c1cccs1 | -1 | -5% | -0.7 | 6 | 4.0% | -10 | -8
CCn1cc(C(=O)NCCCN2CCCC2)c(=O)c2cc(S(=O)(=O)N3CCc4ccccc4C3)ccc21 | -27 | -9% | -1.3 | . | 7.9% | -13 | -4
Cc1[nH]c2ccccc2c1/C=C/c1nc2ccccc2c(=O)n1-c1ccc([N+](=O)[O-])cc1 | -25 | 23% | -3.3 | -1 | ? | 8 | 2
Cc1[nH]c2ccccc2c1/C=N/NC(=O)c1cc(C(C)(C)C)[nH]n1 | 15 | 2% | -7.0 | -7 | 0.7% | -6 | -16
COc1ccc(N=C(c2ccccc2)c2c(C)[nH]n(-c3ccccc3)c2=O)c(OC)c1 | -2 | ? | -4.1 | -18 | 8.9% | -10 | -26
COc1ccc(NC(=O)C(CCSC)NC(N)=O)cc1NS(=O)(=O)c1ccc(F)cc1 (stereo not given) | -5 | 18% | 2.6 | . | -0.1% | 30 | -1
Cc1cc(=O)[nH]c(SCCOc2ccc(OC(C)C)cc2)n1 | 0 | 13% | -4.0 | 0 | 0.0% | -11 | 4
O=C(CN1C(=O)c2cccnc2Oc2ccc(Cl)cc21)Nc1ccccc1F | 2 | 5% | 8.0 | -1 | 0.6% | 13 | -4
CC(C)C1C(=O)N(Cc2cn(CC3CCCCC3)nn2)CCS(=O)(=O)N1Cc1ccc(-c2ccc(F)nc2)cc1 (stereo not given) | . | . | -9.0 | -3 | 1.3% | 0 | -2
CCCn1c(N)c(C(=O)CSc2nc3ccccc3s2)c(=O)[nH]c1=O | 9 | 9% | 3.7 | 4 | 4.9% | 3 | -26
CC(C)C[C@H](N)c1cn([C@@H](Cc2ccc(O)cc2)C(=O)N2CCNCC2)nn1 | 17 | 5% | 0.0 | 0 | -0.2% | 2 | -1
CC(C)(C)OC(=O)NCCCCCNC(=O)c1[nH]cnc1C(=O)NC1CCN(C(=O)OC(C)(C)C)CC1 | -8 | . | 5.5 | -5 | 5.2% | 5 | -1
CC(=O)N1CCCC(C)(C(=O)Nc2ccc3nc(C)ccc3c2)C1 (stereo not given) | . | . | -1.7 | 7 | 3.3% | -10 | 0
O=C(Nc1ccc(Br)cc1F)C1CC(=O)N(C2CCCCC2)C1 (stereo not given) | -8 | 7% | -3.7 | 4 | -0.7% | -22 | -2
Cc1noc(C)c1COc1ccccc1C(=O)N1CCN(c2cccc(C(F)(F)F)c2)CC1 | -8 | . | 6.6 | 1 | 9.2% | 4 | 0
CSc1nnc(C)c(=O)n1COC(=O)c1ccc(S(=O)(=O)N2CCOCC2)cc1 | -8 | -10% | 0.3 | 4 | 0.5% | 1 | 6
Cc1ccccc1CS(=O)(=O)c1snnc1C | 1 | 10% | -0.6 | -2 | -2.5% | -7 | 4
Cc1c(NC(=O)c2nn3c(C(F)(F)F)cc(-c4ccccc4)nc3c2Cl)c(=O)n(-c2ccccc2)n1C | -6 | -16% | -4.5 | 8 | 0.1% | -1 | -9
C#CCOCCOCCOCCNc1nc(N2CCN(C(=O)[C@H](CCCN=C(N)N)n3cc(C(N)[C@@H](C)CC)nn3)CC2)nc(N2CCN(C(=O)[C@H](CCC(=O)O)n3cc([C@@H](N)CCCCN)nn3)CC2)n1 (stereo not given in full) | . | . | -0.3 | -13 | -0.5% | -12 | -10
CC(C)Cc1cc(C(=O)Nc2ccccc2)c2ccccc2n1 | 3 | 3% | -1.0 | -14 | 4.3% | -18 | -4
CCOC(=O)N1CCN(C(=O)C2CCCN(S(=O)(=O)c3ccccc3)C2)CC1 (stereo not given) | -11 | 17% | 0.0 | 5 | 7.2%[38.3 µM] | -8 | 3

Next section:
SMILES | TRPV1 potentiator | Sfp PPTase inh | D2 ag | CtBP-E1A inh | PINK1 expr mod | D2 potentiator | Six1-Eya2 inh
CC1(C(=O)Nc2cccc(C(F)(F)F)c2)Cc2c(-c3ccc4c(c3)OCO4)ccnc2O1 (stereo not given) | . | . | -2.1 | -1 | 4.6% | 4 | -1
CC(=O)Nc1ccc(S(=O)(=O)n2nc(-c3ccc(C)cc3)nc2N)cc1 | 10 | -1% | 0.0 | -1 | 15% | 15 | 1
N#CCNC(=O)C1c2ccccc2Oc2ccccc21 | 9 | 12% | -2.7 | 5 | 0.2% | -8 | 14
CCOC(=O)C1CCN(c2c(NCCN3CCCCC3C)c(=O)c2=O)CC1 (stereo not given) | 9 | -4% | -3.9 | 3 | 1.7% | -2 | -4
Cc1ccccc1C(=O)O/N=C(\N)c1ccc([N+](=O)[O-])cc1 | -13 | -3% | ? | -6 | 2.6% | 15 | -4
O=c1c2c3c(sc2nc2n1CCC2)CCC3 | 27 | 5% | -3.1 | -2 | -1.2% | 12 | -6
O=S(=O)(Nc1ccccn1)c1ccc(Cl)c2ccccc12 | -12 | 0% | 1.6 | -2 | 7.4% | 1 | 2
O=C(O)CCCNS(=O)(=O)c1ccccc1 | 3 | 6% | -4.1 | 2 | 0.8% | -1 | 1
CC(C)C(NC(=O)C(NC(=O)C1O[C@@H]2OC(C)(C)O[C@@H]2[C@H]2OC(C)(C)O[C@@H]12)C(C)C)C(=O)O (stereo not given in full) | 9 | 21% | -0.5 | 0 | 0.7% | -5 | -9
COc1ccc(CNC(=O)CN2CCN(c3ccccc3O)CC2)cc1OC | -29 | 16% | -1.0 | 0 | -0.3% | -11 | 3
CN(C)c1nc(N/N=C/c2ccccc2O)nc(Nc2ccc(F)cc2)n1 | -3 | -1% | -11 | -10 | 15% | -32 | -9
COc1cc2c3c(c1)/C(=C1/SC(=S)NC1=O)C(=O)N3C(C)(C)C=C2C | 1 | 6% | -1.4 | ? | 4.1% | -25 | -28
CC(=O)OCCc1c2ccccc2c(CCCN(C)C)c2ccccc12 | . | . | ? | 0 | 0.5% | 11 | 17
CCOC(=O)N1CCN(Cc2nc3cc(NC(=O)CC)ccc3n2CC)CC1 | -11 | -5% | 0.9 | . | 9.6% | -5 | -2
Cc1csc(N(C(=O)c2ccccc2F)c2ccccc2)n1 | -1 | 20% | -3.5 | 0 | 5.2% | -6 | -1
O=C(COC(=O)CSc1ccc2ccccc2c1)NCc1ccc2c(c1)OCO2 | -11 | 8% | -2.8 | 12 | 1.1% | -19 | 2
Cc1cccc(C(C)C)c1NC(=O)COC(=O)COc1ccc2c(C)cc(=O)oc2c1 | 6 | 17% | 1.6 | 9 | 2.1% | -3 | 3
CC(=O)Nc1ccc(NC(=O)CCCN2C(=O)c3ccccc3C2=O)cc1 | 1 | 5% | 2.4 | 5 | 0.6% | 19 | 4
CC(=O)c1nnn(-c2cccc([N+](=O)[O-])c2)c1C | -6 | 8% | -1.5 | -9 | 0.6% | -3 | -1
COc1ccc(-c2cn3cccc(C)c3n2)cc1F | 6 | 10% | -1.8 | 0 | 0.6% | -7 | -6
COc1cc(C(=O)Oc2ccccc2/C=N/NC(=O)c2ccc(C)cc2)cc(OC)c1OC | -10 | 7% | -3.6 | -20 | 4.3% | -29 | -15
COc1ccc(NC(=O)CN2CCN(c3ccc(F)cc3)CC2)cc1Cl | -4 | 13% | -3.3 | -13 | -0.8% | -20 | -15
N=c1oc2ccccc2cc1-c1nc2ccccc2c(=O)[nH]1 | 2 | 26% | -5.9 | 3 | 1.0% | -2 | -1
C[C@@H]1CN([C@H](C)CO)C(=O)c2c(c3ccccc3n2C)-c2ccccc2CO[C@H]1CN(C)Cc1ccc(C(F)(F)F)cc1 | . | . | -1.7 | -11 | -2.1% | -9 | -16
COc1ccc(NC(=O)C2=CC(c3ccc(C)cc3)=NS(=O)(=O)N2C)cc1OC | 8 | 11% | -1.5 | -2 | 2.3% | -16 | -23
O=c1cc(-c2ccccc2)[nH]n2cnnc12 | 7 | 3% | -1.3 | -8 | 3.3% | -2 | 0
CCOC(=O)CSc1nnc(COc2ccc3ccccc3c2)o1 | 5 | 19% | -1.1 | 24 | 1.0% | 0 | 26
O=C(CSc1nnc(COc2ccccc2F)n1-c1ccccc1)NCc1ccco1 | 25 | -2% | -2.1 | -1 | -1.4% | -16 | -1

Grouped by structure: those above with an NH in an aromatic ring (eight)
SMILES | TRPV1 potentiator | Sfp PPTase inh | D2 ag | CtBP-E1A inh | PINK1 expr mod | D2 potentiator | Six1-Eya2 inh
Cc1[nH]c2ccccc2c1/C=C/c1nc2ccccc2c(=O)n1-c1ccc([N+](=O)[O-])cc1 | -25 | 23% | -3.3 | -1 | ? | 8 | 2
Cc1[nH]c2ccccc2c1/C=N/NC(=O)c1cc(C(C)(C)C)[nH]n1 | 15 | 2% | -7.0 | -7 | 0.7% | -6 | -16
COc1ccc(N=C(c2ccccc2)c2c(C)[nH]n(-c3ccccc3)c2=O)c(OC)c1 | -2 | ? | -4.1 | -18 | 8.9% | -10 | -26
Cc1cc(=O)[nH]c(SCCOc2ccc(OC(C)C)cc2)n1 | 0 | 13% | -4.0 | 0 | 0.0% | -11 | 4
CCCn1c(N)c(C(=O)CSc2nc3ccccc3s2)c(=O)[nH]c1=O | 9 | 9% | 3.7 | 4 | 4.9% | 3 | -26
CC(C)(C)OC(=O)NCCCCCNC(=O)c1[nH]cnc1C(=O)NC1CCN(C(=O)OC(C)(C)C)CC1 | -8 | . | 5.5 | -5 | 5.2% | 5 | -1
N=c1oc2ccccc2cc1-c1nc2ccccc2c(=O)[nH]1 | 2 | 26% | -5.9 | 3 | 1.0% | -2 | -1
O=c1cc(-c2ccccc2)[nH]n2cnnc12 | 7 | 3% | -1.3 | -8 | 3.3% | -2 | 0
